Screening data as filed in PubChem.
BmaI1 enzyme – BmaI1 acyl-homoserine lactone synthase inhibition – biochemical, fluorescence intensity, with counterscreen (AID 720554). BmaI1 enzyme assay, fluorescence intensity; active compounds read high; test concentration not given here; a few actives read low; strong numbers were not always called active. inhibition, %. actives 0.4% (n = 12,000);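 active = both replicates within 2 robust z-scores of the inhibited control and a quiet counterscreen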;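 also: 0% = uninhibited enzyme and 100% = inhibited control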
BmaI1 enzyme counterscreen – also measured in BmaI1 enzyme; calls as there; inhibition, %; measured here: counterscreen; design of the counterscreen not given here;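 first of two replicates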
Starred values were filed as active, the others as inactive; & = joins results of further samples. Not all compounds are listed; count on the stated rates, not on these rows.

SMILES	BmaI1 enzyme	BmaI1 enzyme counterscreen
COc1ccc(C(=O)C(C)Sc2nc3ccccc3n2C)c(OC)c1 (configuration not stated)	1.0	0.5
CCCn1c(SCc2csc(-c3ccccc3)n2)n[nH]c1=O	10.5	8.5
COc1ccc(Cl)cc1C(=O)OCC(=O)N1CCN(C(=O)COC(=O)c2cc(Cl)ccc2OC)CC1	4.0	-5.0
CC1CCCC(C)N1C(=O)CSc1nncn1C (configuration not stated)	-1.0	-1.5
CC(C)(C)C(=O)CC#N	-34.0	-20.5
C[C@@H](C(=O)NCCc1ccc(Cl)cc1)N1C(=O)C2CC=CCC2C1=O (some centres not stated)	4.0	11.0
Cc1onc(-c2ccccc2)c1C(=O)Nc1ccccc1N1CCOCC1	19.0	5.5
O=C(Nc1ccc2c(c1)OCO2)C1(c2ccc(Cl)cc2)CC1	9.5	1.5
CCOC(=O)c1ccoc1CSCc1ccc(C(=O)OC)o1	4.5	-7.0
NS(=O)(=O)c1cc2c(cc1Cl)NC=NS2(=O)=O	2.0	9.0
NCc1cn(-c2ccccc2)nc1-c1ccccc1	13.5	8.0
CCSc1cc(CC)c(C#N)c2nc3ccccc3n12	16.0	6.5
NS(=O)(=O)c1ccc(CNC(=O)COC(=O)c2ccccn2)cc1	4.0	-0.5
CN(CC(=O)NCCc1ccc(S(N)(=O)=O)cc1)Cc1cccs1	6.5	1.0
COC(CNc1ncnc2sc(-c3ccccc3)cc12)OC	45.0	26.5
CCCNC(=O)CSc1nnc(-c2ccccc2)n1CC	-1.0	-2.5
Cc1onc(-c2ccccc2)c1C(=O)OCC(=O)N1CCCC1	5.5	4.5
Cc1nn(-c2ccccc2)c2c1C(c1cccs1)N(C1CC1)C(c1ccccc1)=N2 (configuration not stated)	0.0	1.0
Fc1cccc(Nc2nnc(SCCN3CCCCC3)s2)c1	10.5	10.0
CC(=O)N(c1ccccc1)c1nc(/C=C/C(=O)O)cs1	20.0	3.0
NC(=O)c1sc2nc(-c3ccccc3)cc(-c3ccco3)c2c1N	10.0	17.0
CC(C)[C@H](NS(=O)(=O)c1ccc2c(c1)OCCO2)C(=O)OCc1nc2ccccc2s1	0.5	1.5
COC(=O)c1cc(COC(=O)/C=C/c2cnc3ccccc3n2)oc1C	3.5	2.0
Cc1nccn1CC1CCc2c(c3ccccc3n2C)C1=O (configuration not stated)	4.0&5.0	7.0&9.5
CC(C)N=c1cc2n(-c3ccc(Cl)cc3)c3ccccc3nc-2cc1Nc1ccc(Cl)cc1	-4.0	4.5
Other structures
SMILES	BmaI1 enzyme	BmaI1 enzyme counterscreen
Nc1nc(COC(=O)C2COc3ccccc3O2)nc(Nc2ccccc2)n1 (configuration not stated)	21.5	12.5
CSc1ccc(/C=C(\C#N)C(=O)NC2CCCCC2C)cc1 (configuration not stated)	22.0	-4.0
Cc1cc(C)c2nc(NCCN3CCCC3)cc(C)c2c1	-3.0	-10.0
Cc1ccc(/C=C/C(=O)N2CCN(S(=O)(=O)/C=C/c3ccccc3)CC2)o1	13.0	3.0
CCN(CC(=O)Nc1ccccc1OC)C(=O)c1cccc(CS(C)(=O)=O)c1	-8.0	-6.0
CCN(C(=S)NC)c1cccc2ccccc12	8.5	2.5
CCC(=O)c1ccc(OCc2cn3cc(Cl)ccc3n2)cc1	9.0	5.0
O=C(O)C1CSC2(c3ccccc3)CCC(=O)N12 (configuration not stated)	7.5	5.0
CSc1cccc(N2CC(C(=O)N3CCN(S(=O)(=O)c4ccccc4Cl)CC3)CC2=O)c1 (configuration not stated)	20.5	1.5
CC(NC(=O)CN1CCN(C(=O)C2CCCO2)CC1)c1ccccc1 (configuration not stated)	11.5	8.0
CC(=O)N1CCN(C(=O)CN2C(=O)S/C(=C\c3ccc(Cl)cc3)C2=O)CC1	23.0	16.5
O=C(O)CCSc1ccc(F)c(F)c1	15.0	16.0
O=C(OCCOc1ccc(Br)cc1)c1ccc(Br)o1	10.5	15.5
NCCc1ccccn1	2.0&16.5	-4.0&11.0
CNC(=O)NC(=O)CSc1nc2sccc2c(=O)n1-c1ccccc1	24.5	15.5
O=C(CSc1n[nH]c(=O)n1Cc1ccccc1)NC1CC1	12.5	16.5
COC(=O)c1cccc(CSc2nnc(-c3c[nH]c4ccccc34)o2)c1	-1.0	-4.0
CCN(Cc1ccccc1)Cc1c(C)n(C)n(-c2ccccc2)c1=O	-7.0	-5.5
COc1ccccc1N1CCN(C(C)c2nc3ccccc3s2)CC1 (configuration not stated)	18.5	10.5
CCN(CC(=O)Nc1ccc(NC(C)=O)cc1)C(=O)c1n[nH]c(=O)c2ccccc12	1.5	0.0
O=C(Nc1sc2c(c1C(=O)O)CCCC2)c1cccs1	49.0	11.5
CCCn1c(N)c(C(=O)CSc2nnc(-c3ccco3)n2-c2ccccc2)c(=O)n(C)c1=O	13.0	10.0
O=C(Cc1c[nH]c2ccccc12)OCc1c(F)c(F)c(F)c(F)c1F	1.5	-8.5
CC(NC(=O)c1ccncc1)C1CC2CCC1C2 (configuration not stated)	10.5	0.5
C=C(C)C(=O)OCc1ccc(C#N)cc1	15.5	15.5
Further entries:
SMILES	BmaI1 enzyme	BmaI1 enzyme counterscreen
COc1ccccc1NC(=O)C(C)Nc1ccc(C)c(Cl)c1 (configuration not stated)	12.0	7.5
CCC(C)N(C(=O)CSc1nc2ccccc2c(=O)n1-c1ccccc1)C1CCS(=O)(=O)C1 (configuration not stated)	7.0	0.0
Cc1cc2oc(=O)cc(CSc3nnc(-c4ccoc4C)n3C)c2cc1C	2.5	3.0
Cc1nc(NC(=O)CSc2ccc3c(c2)OCCO3)c(Cl)cc1Cl	6.0	-1.5
NNC(=O)c1ccncc1	-75.0	-52.0
CN(C)S(=O)(=O)c1ccc(C(=O)Nc2cc(C(F)(F)F)ccc2N2CCOCC2)cc1	4.5	5.5
CC(C)C(C(=O)O)n1c(-c2cccs2)n[nH]c1=S (configuration not stated)	-69.5	-23.0
Oc1c(-c2nc3ccccc3s2)sc2ncccc12	29.5	78.5
CS(=O)(=O)NCC(c1ccco1)N1CCCCC1 (configuration not stated)	-14.5	1.5
O=C(CCc1ccc(S(=O)(=O)N2CCCCCC2)cc1)Nc1nnc(C2CC2)s1	3.0	10.5
COc1ccc(N(Cc2cc(C)on2)S(=O)(=O)c2cc(C)ccc2C)cc1	9.0	5.0
O=C(Cn1cnnn1)OCC(=O)c1ccc(Cl)s1	9.0	-1.5
O=C(Nc1nc(-c2ccccc2)cs1)C1CCC1	18.0	12.0
CC(C)(C)C(=O)/C=c1\[nH]c(=O)/c(=C\c2cccs2)s1	10.0	0.5
O=C1CCC2(C(=O)OCc3nc4ccccc4s3)Sc3ccccc3N12 (configuration not stated)	10.0	1.5
CN(C)C(=S)SCC(=O)N1N=C(c2ccc(Cl)cc2)CC1c1ccco1 (configuration not stated)	11.0	15.5
COc1cc2nc(N3CCN(C(=O)C4CCCO4)CC3)nc(N)c2cc1OC (configuration not stated)	3.0&10.0	8.0&18.0
CCn1c(=O)c(NC(=O)c2ccccc2)c2n(c1=S)CCCCC2	13.0	5.5
CON(C)CC(=O)Nc1cc(Cl)cc(Cl)c1	21.0	4.0
CN1CCN(/N=C2/C=C(c3ccccc3)C(O)(c3ccccc3)C2)CC1 (configuration not stated)	9.5	2.5
C[C@]12CCC(=O)C=C1CC[C@@H]1[C@@H]2CC[C@@]2(C)[C@H]1CC[C@]2(C)O	-7.5	-1.5
Cc1ccc(C(=O)COc2nc(C)nc3ccccc23)cc1	8.5	-2.5
O=C(O)/C=C/Sc1ccccc1	13.5	3.5
CCOC(=O)c1cc(-c2ccccc2)sc1NC(=O)COC(=O)C1CC(=O)N(Cc2ccco2)C1 (configuration not stated)	14.0	5.0
O=C(NCc1ccco1)OCC(F)(F)F	9.5	8.0

Exported as comma-separated lines: part of the list above.
Compound,BmaI1 enzyme,BmaI1 enzyme counterscreen
O=C1CCC2(C(=O)OCc3nc4ccccc4s3)Sc3ccccc3N12 (configuration not stated),10.0,1.5
CN(C)C(=S)SCC(=O)N1N=C(c2ccc(Cl)cc2)CC1c1ccco1 (configuration not stated),11.0,15.5

Further records:
SMILES	BmaI1 enzyme	BmaI1 enzyme counterscreen
Cc1ccc(Cn2nc(C)c3cc(C(=O)NC4=NCCS4)sc32)cc1	24.0	16.0
CC(C)CCN1C(=O)CC(N2CCN(S(=O)(=O)c3cccc(Br)c3)CC2)C1=O (configuration not stated)	6.5	3.5
CC(=O)Nc1ccc2c(CSc3nnc(-c4ccoc4C)n3-c3ccccc3)cc(=O)oc2c1	19.5	3.0
Cc1ccc(C(=O)NC2CCOc3ccccc32)o1 (configuration not stated)	4.5	7.5
Cc1csc(N(C(=O)C2CCC2)c2ccccc2)n1	19.5	-1.5
Cc1noc(C)c1COc1ccc(C(=O)OC(C)C(=O)Nc2ccc(S(=O)(=O)N3CCOCC3)cc2)cc1 (configuration not stated)	13.5	17.5
C=CCSc1nc2c(c(=O)[nH]1)C(c1ccncc1)C(C(=O)OC)=C(C)N2 (configuration not stated)	15.5	4.5
Cc1cc(=O)n2c(c1C#N)SC1CCCCC12O (configuration not stated)	14.0	4.5
COc1ccc(-c2nnc(SCC(=O)NCCCc3ccccc3)n2N)cc1	6.0	0.5
CNCc1ccc(F)cc1	16.5	9.5
CCCCn1nnnc1CSCC(=O)Nc1ccc2c(c1)OCCO2	15.0	-1.0
CCOC(=O)c1cc(NC(=O)Nc2nccs2)c(C)nc1C	24.0	39.5
O=C(Cn1ncc(Cl)c(Cl)c1=O)Nc1ccc(Cl)cc1	0.5	-4.5
Cc1sc2ncnc(OCC(=O)N3CC(=O)Nc4ccccc43)c2c1C	0.0	4.5
Cc1cc(Cl)ccc1OCC(=O)OCC(=O)c1ccc[nH]1	1.0	-5.5
N#Cc1oc2ccccc2c1NC(=O)COC(=O)Cc1cccc(C(F)(F)F)c1	27.0	15.5
NC(=O)c1cc(S(=O)(=O)N2CCCC2)ccc1OCc1nc(-c2ccccc2)no1	3.5	7.0
Brc1ccc(-n2c(-c3ccco3)nc3nc4ccccc4nc32)cc1	12.5	7.0
Clc1nsc2ccccc12	56.5	16.0
C=CCn1c(COc2ccc(CC)cc2)nnc1SCC(=O)N(C)C1CCS(=O)(=O)C1 (configuration not stated)	13.0	-1.0
CCn1cc(C(=O)O)c(=O)c2ccc(C)nc21	9.5	12.0
CC(=O)Nc1ccc(SCC(=O)N(C)C2CCCCC2)cc1	8.5	6.0
CCOC(=O)c1sc(N)c(C#N)c1COC(=O)C1Cc2ccccc2CN1S(C)(=O)=O (configuration not stated)	0.0	-1.0
O=C(CSc1nnc(-c2ccccc2)n1Cc1ccco1)c1ccc2c(c1)OCO2	21.0	3.0
COCCn1c(C)cc(C(=O)COC(=O)CCc2nc3ccccc3s2)c1C	9.0	1.5
(more compounds)
SMILES	BmaI1 enzyme	BmaI1 enzyme counterscreen
O=C(CNS(=O)(=O)c1ccccc1)OCc1csc(-c2ccccc2)n1	1.5	12.0
CN1c2ccccc2C(=O)NC1c1ccc(Cl)c(Cl)c1 (configuration not stated)	16.5	10.0
COc1cc(NC(=O)CN2C(=O)CCC2=O)cc(OC)c1OC	-11.0	-8.5
CC1C/C(=N/NC(=O)C2CC2)CC(C)(C)C1 (configuration not stated)	-2.0	-4.5
COc1ccc(C(=O)COC(=O)C2Cc3ccccc3CN2S(C)(=O)=O)cc1 (configuration not stated)	-4.5	-11.5
Cc1noc(C)c1COC(=O)c1ccc2ccccc2c1	4.0	7.0
CNC(=O)C(C)OC(=O)C1CCN(C2=NS(=O)(=O)c3ccccc32)CC1 (configuration not stated)	1.0	0.0
CC(C(=O)NCC1CCCCC1)N1CC=C(c2ccccc2)CC1 (configuration not stated)	6.5	6.5
O=C(Cn1cnnn1)N(Cc1ccco1)Cc1cccs1	20.0	11.0
N#C/C(=C\c1ccco1)C(N)=S	34.5	21.5
Fc1ccccc1-c1csc(-n2nccc2C(F)(F)F)n1	2.5	3.5
Cn1c2ccccc2c2cc(C#N)c3nc(=O)c4ccccc4n3c21	6.5	2.5
O=C(CN1C(=O)COc2ccccc21)N(Cc1nc2ccccc2c(=O)[nH]1)CC1CCCO1 (configuration not stated)	10.5	3.5
CCn1c(SCc2c(C)noc2C)nc2cc(S(=O)(=O)N3CCOCC3)ccc21	16.5	5.5
O=S(=O)(c1ccc(=S)[nH]c1)N1CCCCCC1	90.0	75.5
Cc1ccc(C)c(N2N=C(C(=O)OCN3C(=O)c4ccccc4C3=O)CCC2=O)c1	15.0	6.5
CC(SC1=N/C(=C\c2ccco2)C(=O)N1c1ccc(OC(F)F)cc1)C(=O)N1CCc2ccccc21 (configuration not stated)	6.0	1.5

Part of the list above in order of length of the SMILES, smallest number first:
SMILES	BmaI1 enzyme	BmaI1 enzyme counterscreen
CNCc1ccc(F)cc1	16.5	9.5
O=C(O)/C=C/Sc1ccccc1	13.5	3.5
CON(C)CC(=O)Nc1cc(Cl)cc(Cl)c1	21.0	4.0
CS(=O)(=O)NCC(c1ccco1)N1CCCCC1 (configuration not stated)	-14.5	1.5
O=C(Cn1cnnn1)OCC(=O)c1ccc(Cl)s1	9.0	-1.5
O=C(O)C1CSC2(c3ccccc3)CCC(=O)N12 (configuration not stated)	7.5	5.0
CN1c2ccccc2C(=O)NC1c1ccc(Cl)c(Cl)c1 (configuration not stated)	16.5	10.0
Cc1onc(-c2ccccc2)c1C(=O)OCC(=O)N1CCCC1	5.5	4.5
O=C(Nc1ccc2c(c1)OCO2)C1(c2ccc(Cl)cc2)CC1	9.5	1.5
Cc1nc(NC(=O)CSc2ccc3c(c2)OCCO3)c(Cl)cc1Cl	6.0	-1.5
O=C1CCC2(C(=O)OCc3nc4ccccc4s3)Sc3ccccc3N12 (configuration not stated)	10.0	1.5
COc1cc2nc(N3CCN(C(=O)C4CCCO4)CC3)nc(N)c2cc1OC (configuration not stated)	3.0&10.0	8.0&18.0
N#Cc1oc2ccccc2c1NC(=O)COC(=O)Cc1cccc(C(F)(F)F)c1	27.0	15.5
C[C@@H](C(=O)NCCc1ccc(Cl)cc1)N1C(=O)C2CC=CCC2C1=O (some centres not stated)	4.0	11.0
CC(C)N=c1cc2n(-c3ccc(Cl)cc3)c3ccccc3nc-2cc1Nc1ccc(Cl)cc1	-4.0	4.5
O=C(CN1C(=O)COc2ccccc21)N(Cc1nc2ccccc2c(=O)[nH]1)CC1CCCO1 (configuration not stated)	10.5	3.5
